Calb FLC = C. albicans growth modulation with fluconazole; C. albicans CaCi-2 (fluconazole-resistant clinical isolate) + fluconazole, Alamar Blue growth, 48 h; growth inhibition, % (test concentration not listed); 0.57% of 300,000 active; AID 1979;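 active = most replicates above 75%; inconclusive = exactly half above 75%; inactive = most below 75%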;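 also: all wells also contain fluconazole at 8 µg/ml as a sub-toxic cotreatment; 0% = median of DMSO wells and 100% = median of geldanamycin control wells; wells of about 8 µL received 7.5 nL stock; the first replicate is given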
AF4-AF9 inh = MLL-AF4/AF9 protein interaction inhibition; AlphaScreen, biotin-AF4 peptide binding to FLAG-AF9; inhibition, % at 10 µM; 0.47% of 350,000 active;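 active = every replicate reaching a set inhibition limit, whatever the replicate mean, cut at about 25% in these data; inconclusive = mean inhibition reaches that limit but some replicates miss it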;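 also: 0% = plate neutral control median and 100% = total signal loss; the record names both 10 and 1 µM as test concentration; the first replicate is given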
Target sequence (P42568 whole entry, looked up): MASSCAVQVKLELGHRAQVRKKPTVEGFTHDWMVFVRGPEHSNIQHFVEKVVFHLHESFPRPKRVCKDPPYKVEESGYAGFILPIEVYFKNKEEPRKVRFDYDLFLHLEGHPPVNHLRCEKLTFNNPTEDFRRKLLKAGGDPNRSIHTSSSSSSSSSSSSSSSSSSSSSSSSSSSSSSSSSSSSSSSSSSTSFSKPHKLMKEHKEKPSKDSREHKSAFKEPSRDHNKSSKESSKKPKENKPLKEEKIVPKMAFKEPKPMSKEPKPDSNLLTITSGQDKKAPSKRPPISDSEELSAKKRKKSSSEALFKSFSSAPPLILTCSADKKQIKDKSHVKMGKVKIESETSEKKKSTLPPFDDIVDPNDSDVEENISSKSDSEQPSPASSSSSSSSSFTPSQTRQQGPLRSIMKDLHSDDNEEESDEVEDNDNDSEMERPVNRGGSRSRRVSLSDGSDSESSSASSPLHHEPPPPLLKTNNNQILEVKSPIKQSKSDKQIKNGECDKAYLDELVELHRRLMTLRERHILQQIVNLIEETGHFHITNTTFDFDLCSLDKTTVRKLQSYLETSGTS
FGF22 binding = binders of recombinant human FGF22 by thermal shift; Q9HCT0; SYPRO orange fluorescence; percent of sucrose octasulfate shift, DMSO zero; calls only at 9.99 µM; 1.5% of 340,000 active;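 active = melting point raised past a set limit in the mean and every replicate; inconclusive = no clear call; three in four hits are not shown here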
Target sequence (Q9HCT0 whole entry, looked up): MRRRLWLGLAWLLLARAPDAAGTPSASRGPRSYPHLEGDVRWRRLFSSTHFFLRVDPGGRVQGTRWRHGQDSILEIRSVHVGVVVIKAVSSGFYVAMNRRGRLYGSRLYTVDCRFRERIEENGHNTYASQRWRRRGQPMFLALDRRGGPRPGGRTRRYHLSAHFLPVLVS
rRNA inh HTS = inhibitors of bacterial rRNA selective over humanized ribosomes; E. coli WT GFP vs humanized-ribosome RFP mutants, fluorescence, 24 h; active compounds read low; DMSO median 0, no signal -100; GFP signal change (wild-type ribosome), % (test concentration not listed); 1.6% of 350,000 active;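 active = significant combined selectivity score with lowered wild-type GFP, culture density cut under 30%, mutant RFP and density less affected; inactive = any of these conditions unmet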; also: one replicate is shown; some compounds called inactive have numbers as strong as hits
T cruzi repl = blocks replication of Trypanosoma cruzi; inhibition, % (concentration not given with the values); T. cruzi beta-gal in NIH3T3, luminescence, 90 h; 1.4% of 300,000 active; AID 1885;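 active = mean inhibition across valid replicates above about 55%, limit read from the data; inconclusive = mean below that limit but half or more replicates reach it; inactive = mean below it, under half of replicates reach it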;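 also: signal also drops with host cell toxicity which is not excluded here; 0% = plate median of DMSO wells and 100% = zero luminescence signal; higher percent means less beta-gal luminescence so fewer parasites; stock transfer was 50 nL into about 50 µL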
RanGTP-Impb inh = inhibitors of RanGTP-importin-beta interaction, primary screen, biochemical, FRET, CFP-Ran, YFP-importin-beta, homogeneous; cell-free CFP-Ran/YFP-importin-beta FRET ratio; inhibition, % (test concentration not listed); 1.1% of 300,000 active; AID 2216;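 active = most replicates above 15%; inconclusive = exactly half above 15%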;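 also: 0% = DMSO wells and 100% = Ran loaded with GDP instead of GTP; wells of about 40 µL received 100 nL stock; the first replicate is given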
ALR H2O2 inh = blocks human ALR sulfhydryl oxidase activity; purified ALR, DTT oxidation, H2O2 HRP-luminol luminescence; inhibition, % (test concentration not listed); 3.8% of 290,000 active; P55789; AID 485317;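 active = mean and each replicate at 75% or more; inconclusive = only one of the two met; inactive = neither met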;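 also: stock transfer was 7.5 nL into about 7.5 µL; 0% = neutral wells and 100% = wells with inactivated enzyme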
Target sequence (P55789 whole entry, looked up): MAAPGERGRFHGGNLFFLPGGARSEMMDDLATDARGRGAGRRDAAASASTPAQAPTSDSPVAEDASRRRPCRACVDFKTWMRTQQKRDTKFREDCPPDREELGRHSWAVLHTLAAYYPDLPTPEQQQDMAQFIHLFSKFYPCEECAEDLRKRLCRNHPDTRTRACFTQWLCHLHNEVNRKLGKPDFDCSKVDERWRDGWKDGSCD
Beta cell apopt = blocks beta cell apoptosis | INS-1E cytokine-induced death, ATP luminescence, 48 h; percent of positive-control rescue, neutral wells zero | protection from apoptosis, % (test concentration not listed) | 0.8% of 300,000 active;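 active = all replicates at 75% or more, or half of them and the mean; inconclusive = half reach 75% but not the mean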;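 also: 0% = cytokine-treated negative control wells and 100% = positive control rescue; higher means more ATP so stronger rescue from cytokine killing; wells of about 40 µL received 100 nL stock; the first replicate is given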
rRNA inh HTS OD600 = recorded beside rRNA inh HTS, whose call it bears; OD600 change, %; measured here: OD600 growth;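 optical density of the mix in the first replicate; 0 = DMSO median and -100 = no signal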
rRNA inh HTS RFP = recorded beside rRNA inh HTS, whose call it bears; RFP signal change, %; measured here: RFP humanized mutant strains;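 first replicate; 0 = DMSO median and -100 = no signal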
Numbers without * were called inactive; i = inactive; ? = inconclusive; . = not tested or not shown.

molecule	Calb FLC	AF4-AF9 inh	FGF22 binding	rRNA inh HTS	rRNA inh HTS OD600	rRNA inh HTS RFP	T cruzi repl	RanGTP-Impb inh	ALR H2O2 inh	Beta cell apopt
CNNC(=S)Nc1cccc(C(F)(F)F)c1	-8	-0.7	i	.	.	.	-16	2.5	3	-4
Nc1cc(N)nc(SCC(=O)N2CCCCC2)n1	-2	.	.	.	.	.	-1	0.4	-9	1
COc1ccc(C(=O)NC(=S)NNC(=O)Cc2cccs2)cc1	10	.	.	.	.	.	-13	-1.6	99*	6
NC(=O)CCCSc1nc2ccccc2[nH]1	-6	2.5	i	9	-10	2.8	-24	-1.2	9	0
CCn1c(-c2csc3ccccc23)n[nH]c1=S	30	0.1	i	-14	-15	-6.0	-20	4.1	2	-3
COc1ccc(OC)c(S(=O)(=O)N2CCC(C(=O)NC3CCCCC3)CC2)c1	-4	-2.8	i	1	0	0.1	-10	?	3	-3
O=C(/C=C/c1ccccc1)c1c[nH]c2ccccc12	-16	-25	i	-1	20	3.8	-10	4.7	-4	1
COc1ccccc1-c1nnc(NC(C)=O)s1	9	.	.	.	.	.	5	1.7	-1	-4
COc1ccc(OC)c(C(=O)c2ccc(C(=O)Nc3ccc(NC(C)=O)cc3)cc2)c1	2	2.5	i	1	16	-2.3	9	4.5	-6	-2
CN(C(=O)COc1ccc(Cl)cc1Cl)C1(C)CCS(=O)(=O)C1 (stereo not drawn)	4	-0.8	i	6	2	-1.2	-6	-0.3	3	-1
COc1cc2sc3ccc(C#CC4(O)CCCCC4)cc3c(=O)c2cc1OC	5	-1.7	i	-7	0	-9.0	49	32*	-33	36
O=C(CCN1C(=O)/C(=C/c2cccs2)SC1=S)Nc1ccc(O)cc1	1	1.0	i	-8	0	3.0	9	?	-21	.
O=c1oc2cc(Br)ccc2n1Cc1ccccc1	-3	-1.2	i	-26	-22	-7.5	-6	-2.1	-3	4
O=C(Cc1ccc([N+](=O)[O-])cc1)NCc1cccnc1	4	-0.5	i	5	6	-2.3	-8	1.7	-4	4
O=C(N/N=C/c1c[nH]c2ccccc12)c1ccc(Cl)cc1	-5	4.7	i	-11	-10	1.8	1	-3.0	15	.
Cn1c(SCc2cccc(C#N)c2)nc2ccccc2c1=O	17	-1.5	i	-1	-2	13	0	-1.4	.	2
Cn1c(SCC(=O)NCCc2ccccc2)nnc1C1CCCCC1	1	0.3	i	0	2	-2.0	12	0.6	.	-2
CCOC(=O)c1c(C)[nH]c(C)c1S(=O)(=O)N1CCN(c2ccc(F)cc2)CC1	6	10	i	-6	-9	3.9	6	?	56	-8
O=C(Nc1nncs1)c1ccc(S(=O)(=O)c2ccccc2)cc1	19	.	.	.	.	.	16	?	0	0
CCc1ccc(C(c2c(C)nn(-c3ccccc3)c2N)c2c(C)nn(-c3ccccc3)c2N)cc1	5	18	i	-3	-2	-4.3	34	1.9	.	-1
CC1(OC(=O)c2cnc3ccccc3n2)C(=O)C=C2C=C(C3CC3)OC=C2C1=O (stereo not drawn)	-6	.	.	.	.	.	-25	0.3	-10	0
COc1ccccc1C1=NOC(C)(c2sc(-c3ccccc3)nc2C)C1 (stereo not drawn)	-5	3.2	i	-6	-4	2.6	-3	6.4	2	1
O=C(O)CC(NC(=O)C12CC3CC(CC(C3)C1)C2)c1ccc(OC2CCCC2)cc1 (stereo not drawn)	-4	-4.1	.	-2	3	1.8	2	-3.5	5	-4
Cc1ccc(C2=NOC(C)(c3nnc(-c4ccc(Cl)cc4)o3)C2)cc1 (stereo not drawn)	13	-29	i	-10	-6	7.7	-5	-5.1	.	2
O=C(NN1CCOCC1)c1c(-c2ccccc2)sc2ccccc12	.	.	i	5	9	-0.7	.	.	1	-2
COc1cccc(/C=C/C(=O)OCC(=O)NCc2ccc(Cl)cc2)c1	0	-3.2	i	4	12	-1.2	0	4.2	1	1
CCn1c2ccccc2c2cc(NC(=O)COC(=O)c3cc(S(=O)(=O)N4CCCCC4)ccc3Cl)ccc21	-3	2.8	i	10	9	4.2	-2	1.9	1	-4
CCOC(=O)C1CCN(CC(O)COCc2ccc3c(c2)OCO3)CC1 (stereo not drawn)	-13	-10.0	i	0	-2	3.0	15	-2.8	-16	0
CCOC(=O)c1cnc(-n2nc(C)cc2C)nc1NCCO	5	.	.	.	.	.	-15	0.1	-15	-5
CN(C)CCn1c(C(=O)O)cc2ccccc21	-2	.	.	.	.	.	-8	0.3	-4	-4
O=C(CCc1ccccc1)Nc1nc2c(F)cc(F)cc2s1	-11	4.5	i	-16	-12	3.5	13	4.7	-3	8
O=C(/C=C/c1cccc([N+](=O)[O-])c1)N1CCN(c2ccc(F)cc2)CC1	3	.	.	.	.	.	2	0.2	2	-4
CCOc1ccc(NC(=O)c2ccc3c(c2)CCN3S(C)(=O)=O)cc1	8	-25	i	18	13	2.4	-2	-3.6	-10	-1
CCc1nnc(NC(=O)CN2C(=O)c3ccccc3C2=O)s1	0	.	.	.	.	.	-8	3.1	-3	-1
Cc1cc(C)n(-c2cc(N3CCN(C(=O)c4cccc(Br)c4)CC3)ccc2[N+](=O)[O-])n1	14	.	.	.	.	.	14	0.0	-17	5
COc1ccc(C(=S)N2CCN(c3ccccc3C)CC2)cc1	6	5.0	i	3	-8	-4.1	-1	2.5	-9	-6
CC1(C)CC2C1CCC1(O)CC2(C)CCC1N(O)c1ccc(C(=O)NCCO)cn1 (stereo not drawn)	.	4.4	i	10	6	5.2	.	.	16	-6
CCOc1cc(/C=C/C(=O)O)ccc1OCCOc1ccccc1	3	-1.4	i	-7	-2	-1.2	-17	?	2	.
CCN(CC)CCCOC(=O)c1ccc(OC)cc1O	-4	-1.2	i	14	12	1.5	84*	3.1	-2	-4
O=C(Nc1nc(-c2cc(Cl)sc2Cl)cs1)c1cccs1	6	.	.	.	.	.	16	3.2	2	15
Cc1oc(/C=N/NC(=O)CN(c2ccccc2Br)S(C)(=O)=O)cc1Br	-7	.	.	.	.	.	11	-5.8	-15	-2
Cc1c(Br)c([N+](=O)[O-])nn1CC(=O)NCc1ccccc1	-6	-0.2	i	9	8	-0.4	7	-2.4	.	-3
CC(C)N(Cc1nc(-c2ccc(Cl)cc2)no1)C(=O)C(c1ccccc1)c1ccccc1	3	.	.	.	.	.	11	1.3	0	-1
Cc1ccc(CN(C)C(=O)C2CCCN2C(=O)c2cccs2)o1 (stereo not drawn)	-5	.	.	.	.	.	-3	0.6	7	-8
COc1cc2c(-c3ccc4c(c3)OCO4)c(-c3ccsc3)oc(=O)c2cc1OC	.	0.2	i	-5	12	1.2	.	.	1	-9
O=C1CC(N2CCN(C(c3ccccc3)c3ccccc3)CC2)C(=O)N1Cc1ccc(N2CCCC2=O)cc1 (stereo not drawn)	12	.	.	.	.	.	13	0.6	2	-5
CC(=O)Nc1cccc(C(=O)OC(C(=O)c2ccc(C)cc2)c2ccccc2)c1 (stereo not drawn)	2	.	.	.	.	.	12	-3.1	-5	0
Cc1ccccc1OCc1ccc(C(=O)N2CC(C)OC(C)C2)o1 (stereo not drawn)	21	-6.0	i	3	-5	0.7	3	4.6	.	-1
CC1=CC(=O)C=C(C)C1=NOC(=O)c1cccc([N+](=O)[O-])c1	8	.	.	.	.	.	15	2.5	100*	2
N#Cc1ccc(OCC(=O)NC2=NCCS2)cc1	12	-3.7	i	6	5	1.3	-1	0.2	-2	-15
CCOP(=O)(CN(CC)C(=O)c1ccccc1Br)OCC	2	1.6	i	16	2	0.3	-18	-2.9	-13	-10
CCc1ccc(NC(=O)N(C2CCCCC2)C(C)c2cccnc2)cc1 (stereo not drawn)	1	.	.	.	.	.	-3	5.2	-5	-3
Cc1c(Cl)cnc(NC(=O)CSc2nncs2)c1Cl	112*	2.1	i	1	-5	-6.9	-6	0.4	-14	-1
O=C(Cc1ccc(-c2ccccc2)cc1)NC1CCCC1	-22	-3.4	i	4	7	-0.4	5	9.4	-5	0
Cc1ccc(NC2=CC(=O)CC(C)(C)C2)c(N)c1	9	.	.	.	.	.	-2	-10	-1	-8
Nc1cc(-c2ccc(Cl)cc2)nn1S(=O)(=O)c1ccc(Cl)cc1	-2	2.0	i	0	4	3.1	26	-1.5	-3	.
Cc1cc(C)cc(NC(=O)c2cccnc2)c1	-5	-1.1	i	0	-4	-0.1	-8	-0.4	-16	-6
CCCc1cc(=O)[nH]c(SCC(=O)N2CCOCC2)n1	-3	-1.7	i	1	7	-2.0	9	5.1	0	-2
O=C(COc1ccccc1)NCCS(=O)(=O)N1CCN(c2ccccc2)CC1	0	-13	i	6	11	-0.9	-4	2.3	-4	-9
CCc1ccccc1NC(=O)Nc1ccsc1C(=O)OC	3	-1.0	i	-1	-7	-1.8	-3	0.1	-7	-1
CC(=O)Nc1ccc(NC(=O)CN(C)CCC#N)cc1	-8	.	.	.	.	.	-9	-2.5	.	-4
CC1(C)CC2(CC(c3cccs3)c3cc(Cl)c(O)cc3O2)NC(=S)N1 (stereo not drawn)	3	.	.	.	.	.	-13	1.3	-31	7
CCC(C)NCC(O)(c1ccc(Cl)cc1)c1ccc(Cl)cc1 (stereo not drawn)	4	-1.7	i	-34	-65	17	-14	?	-4	21

Grouped by structure, the entries above with bromine (5)
molecule	Calb FLC	AF4-AF9 inh	FGF22 binding	rRNA inh HTS	rRNA inh HTS OD600	rRNA inh HTS RFP	T cruzi repl	RanGTP-Impb inh	ALR H2O2 inh	Beta cell apopt
O=c1oc2cc(Br)ccc2n1Cc1ccccc1	-3	-1.2	i	-26	-22	-7.5	-6	-2.1	-3	4
Cc1cc(C)n(-c2cc(N3CCN(C(=O)c4cccc(Br)c4)CC3)ccc2[N+](=O)[O-])n1	14	.	.	.	.	.	14	0.0	-17	5
Cc1oc(/C=N/NC(=O)CN(c2ccccc2Br)S(C)(=O)=O)cc1Br	-7	.	.	.	.	.	11	-5.8	-15	-2
Cc1c(Br)c([N+](=O)[O-])nn1CC(=O)NCc1ccccc1	-6	-0.2	i	9	8	-0.4	7	-2.4	.	-3
CCOP(=O)(CN(CC)C(=O)c1ccccc1Br)OCC	2	1.6	i	16	2	0.3	-18	-2.9	-13	-10

High-throughput results (PubChem BioAssay)

These rows are one share of the data; the hit share may differ from the screen's.
